N370S GC mod – inhibits or activates N370S mutant glucocerebrosidase; P04062; N370S GC spleen homogenate, 4MU-glucoside fluorescence; Potency, µM (top dose mostly 59.4 µM), for the others: at the highest dose activity change, negative = inhibition, most hits filed as inhibitors; 330,000 tested, 0.092% active; AID 2101;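 note: 0% = full enzyme activity and -100% = no enzyme basal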
TDP1 inh – blocks human tyrosyl-DNA phosphodiesterase 1. Q9NUW8. recombinant TDP1, AlphaScreen DNA substrate cleavage. Potency, µM (titrated, usually from 130 µM), for the others: at the top dose activity change, negative = inhibition, actives largely listed as inhibitors. 350,000 tested, 0.28% active. AID 485290; note: nearly all actives have a fitted effect of over 40% in size
Target sequence (Q9NUW8 whole entry, looked up): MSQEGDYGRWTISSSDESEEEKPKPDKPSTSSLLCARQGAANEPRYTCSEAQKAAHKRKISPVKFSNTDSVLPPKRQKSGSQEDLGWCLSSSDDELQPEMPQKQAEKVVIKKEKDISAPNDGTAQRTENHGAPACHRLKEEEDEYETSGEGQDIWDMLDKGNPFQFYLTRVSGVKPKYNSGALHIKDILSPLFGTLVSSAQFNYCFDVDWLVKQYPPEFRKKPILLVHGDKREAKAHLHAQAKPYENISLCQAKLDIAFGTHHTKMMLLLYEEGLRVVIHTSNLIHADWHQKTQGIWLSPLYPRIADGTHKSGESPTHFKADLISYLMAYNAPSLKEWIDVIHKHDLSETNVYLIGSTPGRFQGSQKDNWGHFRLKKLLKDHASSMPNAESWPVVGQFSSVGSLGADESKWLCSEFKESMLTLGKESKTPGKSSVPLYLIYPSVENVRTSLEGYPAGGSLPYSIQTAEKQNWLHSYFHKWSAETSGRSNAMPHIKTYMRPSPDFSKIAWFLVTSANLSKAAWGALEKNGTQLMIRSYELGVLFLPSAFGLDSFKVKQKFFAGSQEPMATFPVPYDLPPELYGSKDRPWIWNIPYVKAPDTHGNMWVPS
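Signal: AlphaScreen proximity between streptavidin donor and anti-FITC acceptor beads on intact substrate. Reaction: Tdp1 1 nM, substrate 15 nM final, 5 min RT after 15 min compound preincubation.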
Starred values were filed as active, the others as inactive; u = inconclusive; x = not tested or not shown; & = joins results of further samples; [ ] = another dose, or the depositor's remark. Calls come from the whole dose curve; as a rule, active = well fitted curve in the direction sought with a large enough effect; inconclusive = small, poorly fitted or top-dose-only effect, or another doubt; inactive = no such curve, though single readings can be large; an effect the other way counts as inactive or inconclusive. Unless noted, % is set by controls: 0 for no effect and ±100 for the full control effect; potency is the fitted concentration of half-maximal effect. Only part of the results is shown; most or all hits stand in other tables.

SMILES	N370S GC mod	TDP1 inh
COc1ccc2c3n(nc2c1)CCN=C3c1ccc(Cl)cc1	-3%	2%
COc1ccc(Br)cc1CN(C)C(=O)c1cnc(C)cn1	1%	x
CC(=O)c1ccc(NC(=O)CCCN2C(=O)/C(=C/C(C)=C/c3ccccc3)SC2=S)cc1	2%	3%
C#CC(=O)N(c1cccc(OC)c1)C(C(=O)NC1CCCC1)c1cccs1 (centres undefined)	2%	-4%
COc1c2occc2c(OC(C)=O)c2c(=O)cc(C)oc12	-4%	x
CS(=O)(=O)c1ccccc1-c1nnc(NC(=O)COc2ccc(Cl)cc2)o1	-12%	1%
O=[N+]([O-])c1ccc(Oc2ccc(F)cc2Br)c2ccncc12	15%	11%
CC(OC(=O)Cc1n[nH]c(=O)c2ccccc12)C(=O)Nc1ccc(S(N)(=O)=O)cc1 (centres undefined)	1%	x
O=C(NCC1CCCCC1)c1cc(S(=O)(=O)N2CCCCC2)ccc1Cl	x	0%
Cc1cccc(NC(=S)NCC(c2cccnc2)N2CCOCC2)c1 (centres undefined)	-3%	0%

Looked up by structure from the list above, two records:
SMILES	N370S GC mod	TDP1 inh
CS(=O)(=O)c1ccccc1-c1nnc(NC(=O)COc2ccc(Cl)cc2)o1	-12%	1%
Cc1cccc(NC(=S)NCC(c2cccnc2)N2CCOCC2)c1 (centres undefined)	-3%	0%

Further records follow.
SMILES	N370S GC mod	TDP1 inh
Cc1cc2c3c(c1)C1(C(=O)N3C(C)(C)CC2C)C(C#N)=C(N)Oc2n[nH]c(C)c21 (centres undefined)	-8%	3%
Cc1ccc(C(=O)O)cc1NC(=O)CSc1ncnc2sc3c(c12)CCC3	1%	3%
COc1cc(/C=N/NC(=O)c2ccncc2)ccc1OC(=O)c1cccc(Br)c1	-11%	x
Cc1ccccc1CNC(=O)C(=O)NCCC1CCCCN1S(=O)(=O)c1cccs1 (centres undefined)	2%	x
Cc1ccc(Cn2c(CN3CCOCC3)nc3c2c(=O)n(C)c(=O)n3C)cc1	-1%	5%
O=C(CSc1nnc(CNC(=O)c2ccccc2)n1-c1ccc(F)cc1)Nc1ccccc1F	x	-1%
Cc1ccccc1SCC(=O)N1CCN(c2ccc(C(F)(F)F)cn2)CC1	7%	5%
CC1(C)CC(=O)C(C=NCCN2CCN(C(=O)C34CC5CC(CC(C5)C3)C4)CC2)=C(O)C1	13%	5%
O=C(Nc1nnc(C2CC2)s1)c1ccncc1	-25%	0%
Cc1ccc(OCC(=O)NC(=S)Nc2cccc(C)n2)cc1	1%	2%
CCOC(=O)Cc1csc(NC(=O)COc2ccc(N(C)S(=O)(=O)c3cccs3)cc2)n1	6%	4%
CCOCCCNS(=O)(=O)Cc1ccccc1	1%	2%
Cc1ccc(N2CC(C(=O)Nc3nnc(SCCC4OCCO4)s3)CC2=O)cc1C (centres undefined)	-3%	1%
O=C(NCCN1CCOCC1)c1ccc2c(c1)N(Cc1ccc(F)cc1)C(=O)CS2	-2%	2%
C=CCNC(=O)N1CCCC(N2CCN(c3ccccc3OC)CC2)C1 (centres undefined)	-12%	x
Cc1occc1C(=O)Nc1sc2c(c1C(N)=O)CCCCC2	16%	2%
COc1ccccc1N/C(N)=N/c1nc(C)cc(C)n1	-1%	x
COc1ccc(OCC(=O)Nc2ccccc2N2CCN(C)CC2)cc1	3%	15%
Cc1c(-c2ccc(Cl)cc2)[n+](=O)c(-c2ccccc2)cn1[O-]	5%	5%
CCCN(C(=O)CSc1nnnn1C)c1c(N)n(Cc2ccccc2)c(=O)[nH]c1=O	10%	1%
CCCNC(=O)CSc1nnc(-c2ccco2)n1C	-12%	3%
O=C(/C(=C/c1ccccc1)n1cncn1)c1ccc(Cl)cc1Cl	-7%	6%
O=C(C(=O)N1CCN(c2cccc(Cl)c2)CC1)c1c[nH]c2ccccc12	12%	5%
CCOc1ccccc1OCCOCCOc1ccccc1[N+](=O)[O-]	6%	-3%
CCOc1ccc(CCNC(=O)CSc2nc3ncc(Cl)cc3[nH]2)cc1OCC	0%	2%
COCCNC(=O)c1ccc2c(=O)n(CCCN3CCCC3=O)c(=S)[nH]c2c1	-21%	0%
O=C(Cc1ccccc1)Nc1nc(-c2ccc(F)c(F)c2)cs1	1%	x
c1ccc(-c2nc3nc4ccccc4nc3n2CC2CCCO2)cc1 (centres undefined)	20%	x
CC1CN(CCOc2ccc(Cl)cc2Cl)CC(C)O1 (centres undefined)	-30%	-2%
CC(C)(Cc1ccc(O)cc1)NC(=O)CC(=O)N=Nc1c(O)[nH]c2ccc(Br)cc12	-23%	-2%

The last 2 entries of the section before open the next one:
SMILES	N370S GC mod	TDP1 inh
CC1CN(CCOc2ccc(Cl)cc2Cl)CC(C)O1 (centres undefined)	-30%	-2%
CC(C)(Cc1ccc(O)cc1)NC(=O)CC(=O)N=Nc1c(O)[nH]c2ccc(Br)cc12	-23%	-2%
CCOCCCNC(=S)N(Cc1ccco1)Cc1cc2cc3c(cc2[nH]c1=O)OCCO3	18%	9%
C=CCn1c(COC)nnc1SCC(=O)c1ccc(F)cc1	-10%	2%
Cc1[nH]n(C(N)=S)c(=O)c1N=Nc1cccc(Cl)c1	-18%	x
CC(=O)Nc1ccc(S(=O)(=O)NCCS(=O)(=O)N2CCN(c3ccccc3F)CC2)cc1	-2%	2%&6%
Cc1ccc(Nc2nc(Cl)c(C=O)s2)cc1Cl	1%	5%
CNC(=O)C1CCN(S(=O)(=O)c2c(C)noc2/C=C/c2ccc(C)cc2)CC1	4%	x
O=C1N(CN2CCN(c3cccc(Cl)c3)CC2)c2ccccc2C12OCCCO2	25%	-1%
CCCS(=O)(=O)N1CCCC(C(=O)N2CCOCC2)C1 (centres undefined)	5%	2%
O=C(COC(=O)c1cnccn1)c1ccc(Cl)cc1	2%	0%
Cc1c(C(=O)N2CCOCC2)sc2ncn(CC(=O)N3CCC(C)CC3)c(=O)c12	3%	3%

Full records as entered above:
C#CC(=O)N(c1cccc(OC)c1)C(C(=O)NC1CCCC1)c1cccs1 (centres undefined) is listed with N370S GC mod: 2%; TDP1 inh: -4%
CNC(=O)C1CCN(S(=O)(=O)c2c(C)noc2/C=C/c2ccc(C)cc2)CC1 is listed with N370S GC mod: 4%; TDP1 inh: x

Additional entries.
SMILES	N370S GC mod	TDP1 inh
Cc1ccc(C(=O)NC2CC3CCCC(C2)N3Cc2ccccc2)cc1 (centres undefined)	-1%	x
CN(C(=O)COC(=O)Cc1c(Cl)cccc1Cl)c1c(N)n(Cc2ccccc2)c(=O)[nH]c1=O	2%	x
CN(C)/C=N/c1sc2c(c1C#N)CCCCC2	22%	4%
COc1ccc(C2CC(=O)C=C(NCC3CCCO3)C2)cc1 (centres undefined)	-3%	-4%
COc1ccc(C2(O)C(=O)Nc3ccc(C)cc32)cc1OC (centres undefined)	0%	x
COc1cc2nc(N(CCN(C)C)C(=O)c3ccc(S(=O)(=O)N(C)CC4CCCO4)cc3)sc2cc1OC (centres undefined)	-2%	6%
CC(c1cccnc1)N(CCN(C)C)C(=O)Nc1ccc(Cl)cc1 (centres undefined)	-17%	0%
COC(=O)CCCn1nc(NC(=O)c2ccco2)cc1C	-3%	x
O=C1NC2c3ccccc3C(=O)N2c2c1cnn2-c1ccccc1 (centres undefined)	3%	0%
Cc1onc(-c2c(F)cccc2Cl)c1C(=O)N1CCc2ccccc21	0%	5%
CCC1CCCCN1CCNC(=O)c1[nH]c(C)c(C(C)=O)c1C (centres undefined)	5%	4%
CCOc1ccc(S(=O)(=O)Nc2ccc(F)cc2)c(C)c1C	10%	6%
CCC(=O)N1CCc2cc(S(=O)(=O)NCCN3CCC(C)CC3)ccc21	20%	5%
O=C(Nc1nnc(Cc2ccc(Cl)cc2)s1)c1ccncc1	-1%	-1%
COc1ccc(CCNC(=O)CN2CCN(Cc3ccc(F)cc3)C2=O)cc1OC	-9%	5%
Cc1c(N=Cc2ccccn2)c(=O)n(-c2ccccc2)n1C	5%	0%
CCOc1ccccc1NC(=O)CSc1nnc2ccc(-c3ccncc3)nn12	3%	1%
COc1ccc(C(=O)NC(CC(C)C)C(=O)O)cc1OC (centres undefined)	4%	4%
N/C(Cn1cncn1)=N\NC(=O)C(=O)Nc1cccc(C(F)(F)F)c1	5%	-5%
O=C(c1cnn2c1NC(c1ccco1)CC2C(F)(F)F)N1CCN(c2cccc(Cl)c2)CC1 (centres undefined)	-2%	8%
COc1nc(-c2ccc(C)cc2)ccc1-c1noc(-c2ccco2)n1	10%	-1%
CC(C)N(C(=O)CSc1nnc(NC(=O)Cc2cccs2)s1)C(C)C	-5%	0%
CO/N=C(\c1nonc1N)N1CCN(c2ccc(Cl)cc2[N+](=O)[O-])CC1	18%	11%
C[C@@]12C(=O)OC(=O)[C@@]1(C)[C@@H]1CC[C@@H]2O1	-4%	15%
CC(C)c1ccc(/C=N/N2CCN(c3ccccn3)CC2)cc1	1%	2%
N#CCCC(CCC#N)C1=NCCc2ccccc21	2%	x
CC(C)Cc1cc(C(=O)Nc2c(F)cc(F)cc2Br)no1	0%	1%
O=[n+]1c2c(n([O-])c3cc(F)c(F)cc31)CCCC2	0%	-5%
Nc1ncc(CCN2CCOCC2)c(-c2ccc(F)cc2)n1	0%	5%
COC(=O)c1cc(OC)c(OC)cc1NC(=O)CN1C(=O)c2ccccc2C1=O	8%	4%

Taken from above:
Entry of CC(C)N(C(=O)CSc1nnc(NC(=O)Cc2cccs2)s1)C(C)C in TDP1 inh: 0%
Entry of CC(C)Cc1cc(C(=O)Nc2c(F)cc(F)cc2Br)no1 in TDP1 inh: 1%
Entry of CO/N=C(\c1nonc1N)N1CCN(c2ccc(Cl)cc2[N+](=O)[O-])CC1 in TDP1 inh: 11%
Entry of CC(C)c1ccc(/C=N/N2CCN(c3ccccn3)CC2)cc1 in TDP1 inh: 2%
Entry of O=[n+]1c2c(n([O-])c3cc(F)c(F)cc31)CCCC2 in N370S GC mod: 0%

Going on with the list:
SMILES	N370S GC mod	TDP1 inh
COCc1c(C)cc(C)c(/C=N/O)c1C	5%	1%
Cc1cccc(C(=O)N/N=C/c2ccccn2)c1	4%	3%
O=C(NCc1cccnc1)c1ccc(NS(=O)(=O)c2ccc(F)cc2)cc1	-8%	4%
CCCNC(=O)C1CCN(S(=O)(=O)c2ccc(-c3nn[nH]n3)cc2)CC1	3%	6%
CN1C=CC=C/C1=C1\SC(=S)N(CC(=O)O)C1=O	-27%	5%
Cc1cccc(C(=O)NN2C(=O)C3C(c4ccccc4)C=CC(c4ccccc4)C3C2=O)c1 (centres undefined)	1%[12.8 µM]	0%
CCOc1ccc(S(=O)(=O)Nc2cccc(C(=O)NCC(c3ccco3)N(C)C)c2)cc1 (centres undefined)	-4%	4%
CCCC(=O)n1nc(-c2ccccc2)nc1SC	-1%	1%[56.1 µM]
COc1ccc(C(=O)c2coc3ccc(O)c(CN4CCCC4)c23)cc1	-1%	3%
CCCn1c(CNC(=O)c2cccs2)nc2ccccc21	-4%	0%
CN(CC(=O)Nc1ccc(S(=O)(=O)N2CCCC2)cc1)Cc1ccc(Cl)c(Cl)c1	16%	6%
Brc1ccc(OCc2nnnn2-c2ccccc2)cc1	29%	3%
CC(=O)Nc1ccc(S(=O)(=O)Nc2ccc(S(=O)(=O)Nc3nccs3)cc2)cc1	-5%	x
CC1(C)CC(=O)C=C(NCC2CCCO2)C1 (centres undefined)	4%[2.35 µM]	-9%
Cc1ccc(C)c(NC(=O)Cn2nnc(C(=O)NCc3ccco3)c2N)c1	-11%	-3%&1%
NC(=O)c1ccc(N2CCN(c3ncc(C(F)(F)F)cc3Cl)CC2)cc1	-3%	x
CCOC(=O)CSc1n[nH]c(NC(=O)c2ccccc2)n1	5%	2%
O=C(OCC(=O)N1CCCC1)c1ccc(Cl)nc1	x	-2%
COc1cc(OC)c(OC)cc1CN1CCC(O)CC1	-3%	x
Fc1ccccc1/C=N/Nc1ccc(Cl)nn1	2%	x
COc1ncnc2c1oc1nc(C)c3c(c12)CC(C)(C)OC3	1%	-2%
O=C(CSc1ccccn1)N1CCCC(Nc2ccccc2)C1 (centres undefined)	4%	x
CC1CCN(C(=O)NC(=O)c2ccc(Cl)cc2)CC1	4%	4%
Cc1cc(NC(=O)c2cc(-c3ccc(O)cc3)on2)no1	7%	x
CC(C)n1c(SCC(=O)N2CCCCC2)nc2c1c(=O)n(C)c(=O)n2C	-7%	2%
CCN/C=C(\C#N)S(=O)(=O)c1ccc(Br)cc1	6%	8%
CN(C)S(=O)(=O)N1CCC(Oc2cccc(C(=O)NC3CCCCC3)c2)CC1	-18%	2%
COc1ccc(C)cc1NC(=O)CN(Cc1nnc(-c2ccc(Cl)cc2)o1)C1CCCC1	u	-3%
COc1ccc(S(=O)(=O)Nc2c(F)cccc2F)cc1	6%	8%
Cc1ccc(S(=O)(=O)N2CCC(C(=O)N3CCC(C(=O)NCc4cccnc4)CC3)CC2)cc1	-1%	2%
CCSc1nnc(N2C(=O)c3ccc(C(=O)c4ccc(C(=O)O)cc4)cc3C2=O)s1	-1%	5%
Cn1c(=N)n(CC(O)c2ccccc2)c2ccccc21 (centres undefined)	-24%	5%
O=C(c1ccc(F)cc1Cl)N1CCN(CCc2ccccc2)CC1	-2%	4%
CCCNC(=O)c1ccc2c(=O)n(Cc3ccco3)c(=S)[nH]c2c1	-4%	1%
CN(CC(=O)NCCc1ccc(Cl)cc1)S(=O)(=O)c1cccs1	2%	3%
CCOC(=O)c1[nH]c(C)c(C(=O)NC)c1C	2%	3%
COc1ccc(C(=O)NCC(=O)N2CCCC(C(F)(F)F)C2)cc1OC (centres undefined)	-6%	-3%
Cc1cccc(Cc2ncc(C(F)(F)F)cc2Cl)c1	-10%	x
Cc1ccc(C(=O)Nc2cnc3ccccn3c2=O)cc1	4%	-3%&-4%
CCCCN(CCCC)Cc1ccc(C(=O)NNC(=O)Nc2ccc(F)cc2)o1	-7%	5%
